StopGo reporter = FMDV 2A StopGo reporter, luciferase signal; human cells with a luciferase reporter of 2A StopGo recoding; control for the full effect not named in the record; Potency, µM (highest dose often 57.9 µM), inactives show top-dose signal change, negative = less light; actives 1.2% (n = 410,000); active = well fitted falling curve with a large enough effect; inconclusive = small, poorly fitted or top-dose-only effect; inactive = no such curve, though single readings can be large or run the other way; tested in HEK293T cells; also: % is scaled to controls: 0 for no effect and ±100 for the full control effect; nearly all actives have a fitted effect of over 45% in size; luciferase light after 4 h
MARV entry inh = blocks Marburg virus binding to or entry into cells; actives 1.8% (n = 300,000); AID 540276; Marburg virus pseudotyped entry inhibition, cell reporter; control for the full effect not named in the record; about a third of the inactives were read at about 46 µM; Potency, µM (series often up to 37.8 µM), for the others: at the highest dose activity change, negative = inhibition, actives largely listed as inhibitors; active = well fitted inhibition curve with a large enough effect; inconclusive = small, poorly fitted or top-dose-only effect, or effect the other way; inactive = flat fitted curve, though single readings scatter; tested in HEK293 cells; about a fifth of its hits are not listed in these tables; also: % is scaled to controls: 0 for no effect and ±100 for the full control effect; luciferase read-out
Cruzain noTriton = blocks cruzain activity in detergent-free assay | P25779 | purified cruzain, Z-FR-AMC fluorescence, no detergent | Potency, µM, for the others: max response, negative = inhibition, usual class: inhibitors | actives 2.3% (n = 200,000); active = well fitted curve in the direction sought with a large enough effect; inconclusive = small, poorly fitted or top-dose-only effect, or another doubt; inactive = no such curve, though single readings can be large; an effect the other way counts as inactive or inconclusive;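 also: plate controls were enzyme without inhibitor for no effect and buffer without enzyme for full effect; nearly all actives have a fitted effect of over 40% in size; top concentration of the series not given in the record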
Target sequence (P25779 123-467 limits assumed): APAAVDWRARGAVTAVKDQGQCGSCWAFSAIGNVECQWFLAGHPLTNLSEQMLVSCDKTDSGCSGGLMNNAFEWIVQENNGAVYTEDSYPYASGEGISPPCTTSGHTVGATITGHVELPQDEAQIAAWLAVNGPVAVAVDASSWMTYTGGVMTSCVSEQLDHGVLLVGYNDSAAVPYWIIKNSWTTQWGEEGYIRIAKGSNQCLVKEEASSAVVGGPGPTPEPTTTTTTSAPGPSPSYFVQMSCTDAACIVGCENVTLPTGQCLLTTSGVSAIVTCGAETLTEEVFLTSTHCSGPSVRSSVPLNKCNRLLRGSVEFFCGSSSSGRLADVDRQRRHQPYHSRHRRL
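Purified cruzain at 1.5 nM, pre-incubated 15 min with compound at room temperature in 100 mM sodium acetate pH 5.5, 5 mM DTT, 0.00005% Triton X-100. Reaction started with 2 uM Z-FR-AMC; AMC fluorescence increase over 60 s gives rate.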
SARS PLpro yeast = inhibitors of SARS-CoV papain-like protease in yeast | Potency, µM (highest dose often 32.9 µM), without a hit: top-dose activity, positive = growth rescue | AID 485353 | S. cerevisiae expressing SARS-CoV PLpro, growth rescue; control for the full effect not named in the record | actives 0.19% (n = 330,000); also: 0% is about no effect; nearly all actives have a fitted effect of over 55% in size; growth read by luminescence after 48 h
Lassa entry inh = Lassa virus entry inhibition. actives 1.2% (n = 300,000). Potency, µM (highest dose often 37.9 µM), without a hit: top-dose activity change, negative = inhibition, most hits filed as inhibitors. AID 540256. Lassa virus pseudotype entry inhibition, cell reporter; control for the full effect not named in the record; active means well fitted inhibition curve with a large enough effect; inconclusive means small, poorly fitted or top-dose-only effect, or effect the other way; inactive means flat fitted curve, though single readings scatter; tested in HEK293 cells; also: % is scaled to controls: 0 for no effect and ±100 for the full control effect; nearly all actives have a fitted effect of over 50% in size; luciferase read-out
NS1 function inh = influenza NS1 inhibition. AID 2326. Potency, µM (series often up to 46.1 µM), inactives show top-dose activity, positive = more growth. S. cerevisiae slowed by influenza A NS1, growth recovery by OD600. actives 0.4% (n = 270,000); also: actives are rising curves; nearly all actives have a fitted effect of over 50% in size
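Read-out: OD600 growth recovery of NS1-expressing budding yeast. Cells grown overnight at 30C in -URA glucose medium, washed, resuspended and diluted 1:100 in 2% galactose assay medium, pH 6.0. Same strain lacking NS1 served as positive control.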
RE007 growth inh = less growth of the S. pombe RE007 Vpr strain | Potency, µM (series often up to 92.2 µM), for the others: top-dose activity change, negative = less growth | S. pombe RE007 Vpr strain, BacTiter-Glo ATP luminescence, 24 h; control for the full effect not named in the record | actives 0.21% (n = 360,000) | AID 651644; active = well fitted falling curve with a large enough effect; inconclusive = small, poorly fitted or top-dose-only effect; inactive = no such curve, though single readings can be large or run the other way;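 also: % is scaled to controls: 0 for no effect and ±100 for the full control effect; nearly all actives have a fitted effect of over 50% in size; the assay follows cell death caused by Vpr and the record does not say whether a fall means rescue or toxicity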
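Fission yeast strain RE007, carrying one chromosomally integrated HIV-1 vpr copy, was seeded at OD 0.01 in PMG+AL medium with 23 nL pinned compound. After 24 h at 30 °C and 99% humidity, viability was read by BacTiter-Glo luminescence.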
Cruzain Triton = cruzain (T. cruzi) inhibition with detergent; P25779; purified cruzain, Z-FR-AMC fluorescence, 0.01% Triton; Potency, µM, inactives show max response, negative = inhibition, usual class: inhibitors; actives 0.43% (n = 200,000); AID 1478; active = well fitted curve in the direction sought with a large enough effect; inconclusive = small, poorly fitted or top-dose-only effect, or another doubt; inactive = no such curve, though single readings can be large; an effect the other way counts as inactive or inconclusive;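 also: plate controls were neutral wells for no effect and buffer without enzyme for full effect; nearly all actives have a fitted effect of over 40% in size; top concentration of the series not given in the record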
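15 min RT preincubation of 1.5 nM cruzain with compound, then 2 uM Z-FR-AMC added; kinetic AMC fluorescence, 60 s delta. Triton X-100 0.01%, pH 5.5.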
Active calls of the source: *; ? = inconclusive; · = not tested or not shown; & = joins results of further samples; [ ] = remark or other dose. Unless noted, calls follow the shape of the dose curve; as a rule, active means well fitted rising curve with a large enough effect; inconclusive means small, poorly fitted or top-dose-only effect; inactive means no such curve, though single readings can be large or run the other way. Potency is read from the fitted curve at half-maximal effect.

canonical_smiles,Cruzain Triton,NS1 function inh,Lassa entry inh,Cruzain noTriton,SARS PLpro yeast,RE007 growth inh,StopGo reporter,MARV entry inh
Cc1ccc(/C=N/NC(=O)Cn2cncn2)cc1,·,·,0%,·,3%,28%,9%,9%[46.1 µM]
COc1ccc(CN2C(=O)CN(C3CCCCCC3)C(=O)C2c2ccc(F)cc2)cc1 (stereo not given),-1.4%,11%,?,9%,4%,2%,13%,-6%
N#CCC(=O)N/N=C/c1ccc(OC2CSC2)cc1,·,7%,·,·,0%,-5%,3%,·
COc1cccc(N/C(N)=N/c2nc(C(F)(F)F)cc(=O)[nH]2)c1,0.7%,6%,-14%,?,25%,3%,-10%,-18%
CCN(Cc1ccccc1)C(=O)COC(=O)Cn1cnc2ccccc21,·,·,-1%,·,-3%,0%,-30%,7%
O=C(NC(C(Cl)Cl)N1CCOCC1)c1ccccc1 (stereo not given),·,·,-9%,·,3%,7%,-17%,3%
COc1ccccc1NC(=O)/C(N=Nc1ccc(C)c(S(=O)(=O)Nc2ccccc2Cl)c1)=C(\C)O,·,·,-22%[46.1 µM],·,-6%,8%,18%,?
CCC1CCCCN1S(=O)(=O)c1ccc(-n2cnnn2)c(C)c1 (stereo not given),·,4%,-10%,·,8%,4%,5%,-26%[46.1 µM]
Cc1ccc(Nc2cc(C(=O)NCc3cccs3)c3ccccc3n2)c(C)c1,-12%,·,-2%[46.1 µM],14%,·,·,-3%,-8%[46.1 µM]
Cc1cc([N+](=O)[O-])c(NC2CCCCC2)c([N+](=O)[O-])c1,·,·,-14%,·,·,-8%,?,?
Cc1ccc(N2CCN(C(=O)C3CCN(S(=O)(=O)c4cccc5nsnc45)CC3)CC2C)cc1 (stereo not given),·,4%,?,·,·,7%,?,-27%[46.1 µM]
CCOC(=O)c1ccc(NC(=O)CSc2nnc(C3CC3)n2C)cc1,3.1%,11%,-2%,6%,18%,0%,-3%,-1%
Cc1ccc(Cn2c(SCc3ccc(C(=O)NCCc4ccccc4)cc3)nc3ccncc32)cc1,-11%,·,?,-18%,·,·,-17%,18%[46.1 µM]
COC(=O)C1=C(C)N(Cc2ccccc2)C(=O)N[C@H]1c1ccccc1,-0.9%&-1.1%,-25%,?,-11%&8%,10%,-7%,-26%,?
Cc1ccc(-c2nnc(SCc3ccccc3C)o2)cc1,-4.8%,·,3%[46.1 µM],7%,·,·,67%[activator],?
CC(=O)N1c2ccc(S(=O)(=O)N(C)CC(=O)NCc3ccccc3)cc2CC1C (stereo not given),·,4%,-14%[46.1 µM],·,-4%,13%,-9%,?
COc1cc(CCC(=O)NCc2ccc3c(c2)CCN3C(=O)c2ccc(F)cc2)cc(OC)c1OC,3.6%,·,-1%[46.1 µM],27%,·,·,-6%,·
CCOc1cc(C2c3c(oc4ccc(F)cc4c3=O)C(=O)N2Cc2ccc(C)cc2)ccc1O (stereo not given),2.7%,·,18%[46.1 µM],14%,·,·,71%[activator],?
O=c1ccsn1Cc1ccccc1,?,-49%,-6%,13µM*,-13%,-70%,?,?
O=C(CSc1nc2ccccc2[nH]1)Nc1ccc2c(c1)OCCO2,-8.9%,-1%,-1%,-10%,-3%,4%,-10%,-1%
Cc1ccc(S(=O)(=O)CCc2nc3ccccc3[nH]2)cc1C,·,·,·,·,0%,6%,12%,-21%[46.1 µM]
CCOC(=O)c1c(C)[nH]c(C)c1S(=O)(=O)N(C)CC(=O)Nc1ccc(C)c(N(C)C)c1,0.9%,·,2%[46.1 µM],-3%,·,·,11%,·
CN1OC[C@@H]2COc3ccc4ccccc4c3[C@@H]21,·,·,-3%[46.1 µM],·,-5%,7%,21%,?
Cc1csc(SCC(=O)Nc2cc(S(=O)(=O)N(C)C)ccc2C)n1,·,·,6%,·,-4%,29%,-10%,-28%[46.1 µM]
COc1ccccc1/C=C/C(=O)OCC(=O)NC(=O)NC1CCCC1,·,·,0%[46.1 µM],·,-20%,-4%,-1%,0%[46.1 µM]
C[C@]12CCC3c4ccc(O)cc4CCC3C1CC/C2=N\N (stereo not given in full),·,·,21%[46.1 µM],·,·,12%,-2%,?
Cc1ccc(S(=O)(=O)NCC(c2ccco2)N2CCOCC2)cc1 (stereo not given),0.1%&-2.3%,0%,22%[46.1 µM],-7%&12%,18%,0%,-20%&20%,4%&4%
Cc1ccc(CCNC(=O)c2cc(-c3ccncc3)nc3ccc(S(=O)(=O)N4CCOCC4)cc23)cc1,·,6%,·,·,-1%,-5%,-12%,·
Cc1cccc(N=Cc2c(O)n(-c3ccccc3C)c(=O)[nH]c2=O)c1,-3.8%,17%,?,-15%,-2%,11%,2%,7%
COc1c(C)cc(C(=O)C2CCCN(C(=O)C3=C(C)OCCO3)C2)cc1C (stereo not given),·,15%,·,·,-2%,-6%,-20%,·
CCCNC(=O)CN1C(=O)c2ccccc2Sc2ncccc21,·,4%,?,·,0%,0%,11%,0%
CCOc1ccc(Nc2nnc(SCc3nc4ccccc4c(=O)[nH]3)s2)cc1,·,3%,·,·,-2%,6%,1%,·
CC(C)(C)NC(=O)/C(=C\c1ccc(Br)cc1)NC(=O)c1cccs1,-4.0%,6%,8%,-5%,3%,0%,6%,3%&0%
Cc1ccc2c(CC(=O)NCC(=O)Nc3c(C)cccc3C)coc2c1,·,·,?,·,1%,-28%,-2%,-7%
O=C(O)C(=O)Nc1nc(-c2ccc3c(c2)OCCO3)cs1,·,0%,·,·,-2%,-12%,11%,·
COc1ccc(NC(=S)NCc2cccnc2)cc1,·,·,6%[46.1 µM],·,-1%,0%,13%,9%[46.1 µM]
CCOC(=O)C1=C(C)Nc2ccccc2N=C1NC(=O)C1CCN(C(=O)c2ccccc2C)CC1,·,·,16%[46.1 µM],·,-1%,2%,10%,-25%[46.1 µM]
Cc1cc[n+](-c2[nH]c(=O)sc2/C=N/N=C(\[O-])c2ccncc2)cc1,·,-4%,·,·,7%,0%,-5%,·
S=c1[nH]nc(-c2ccco2)n1-c1cccc2ccccc12,0.8%,-22%,?,-10%,-3%,2%,26%,20%
COCCCNC(=O)Cn1nnc(-c2ccccc2NC(=O)c2ccccc2F)n1,-0.2%,-6%,10%,11%,-4%,3%,·,0%
Cc1cccc(NCCC#N)c1,0.8%,10%,16%,-6%,-40%,-7%,-20%,-7%
O=C1CSC(c2cn(-c3ccccc3)nc2-c2cccs2)N1Cc1ccccc1 (stereo not given),-2.0%,5%,·,-2%,7%,·,·,0%
N#CCC(CNc1ncc(C(F)(F)F)cc1Cl)OC(=O)c1cccc([N+](=O)[O-])c1 (stereo not given),-4.3%,-3%,2%,6%,-17%,1%,·,1%
CCn1c(CSc2nc3ccccc3s2)nnc1SCC(=O)c1ccc(O)cc1O,0.0%,2%,-18%,-4%,-5%,0%,·,3%
Cc1ccc(C)c(N2CCN(C3(c4ccccc4)C(=O)c4ccccc4C3=O)CC2)c1,-2.8%,·,8%[46.1 µM],?,·,·,-12%,-2%[46.1 µM]
COc1ccc(CC(=O)OCc2cc(=O)n3cc(Br)ccc3n2)cc1OC,·,·,13%,·,0%,-15%,?,25%[46.1 µM]
O=C(NCc1ccc(Cl)cc1)c1n[nH]c([N+](=O)[O-])c1Cl,·,-10%,·,·,-4%,17%,0%,·
Cn1nnnc1SCC(=O)c1ccc(Br)s1,-5.9%,-2%,6%,1%,-11%,-10%,13%,18%
CCN(CC)c1ccc2c(c1)oc(=O)c1c(Cl)cc(=O)oc12,-8.5%,-54%,?,-9%,-18%,12%,?,?
CCc1nnc(NC(=O)CSc2nc3cccnc3n2C2CCCCC2)s1,-4.2%,-37%,5.6µM*,?,-2%,-9%,?,2.5µM*
CCc1c(C)nc(N)nc1N1N=C1SCC#N,-0.7%,0%,-4%,-2%,-10%,14%,3%,11%
CCc1ccc(NC(=O)CSc2nc3c([nH]c4ccccc43)c(=O)n2C)cc1,-0.1%,·,7%[46.1 µM],-9%,·,·,22%,·
Cc1cccc2nc(-c3ccco3)oc(=O)c12,·,0%,13%[46.1 µM],·,2%,-22%,-11%,5%[46.1 µM]
COC(=O)c1ccc([C@@H]2C[C@H]3CN(Cc4cccnc4)C(=O)[C@]34CCCN24)cc1,·,3%,-2%,·,0%,-18%,-13%,23%[46.1 µM]
CCOc1cc(CNc2ccc(N3CCCCC3)cc2)cc(Br)c1OCC(=O)NC(C)(C)C,-8.6%,-27%,-13%,15%,-28%,·,32µM*,-30%
CC1CCN(c2ccc3nnc(CCC(=O)Nc4ccc(F)cc4)n3n2)CC1,·,-13%,?,·,4%,-5%,-14%,-13%[46.1 µM]
CNc1ccc(/C=C(\C#N)c2ccccn2)cc1[N+](=O)[O-],·,·,?,·,2%,1%,80%[activator],?
CC(C)Cn1c(N)c(/C=N/NC(=O)c2ccc(Cl)cc2)c(=O)n(C)c1=O,·,-51%,-3%,·,0%,4%,-11%,16%[46.1 µM]
CCc1ccc(/C=C(\Cl)c2nc3cc(Cl)ccc3c(=O)[nH]2)cc1,-0.4%,1%,0%,10µM*,4%,3%,0%,-12%
C=CCOc1ccccc1C1C2=C(CC(C)(C)CC2=O)Nc2c1c(=O)n(C)c(=O)n2C (stereo not given),-0.9%,2%,-9%,-5%,?,-13%,-9%,4%
CCCCN(C(=O)c1cc(S(=O)(=O)N2CCCCC2)ccc1Cl)c1c(N)n(CCC)c(=O)[nH]c1=O,·,·,3%,·,·,-7%,8%,-2%
COc1ccc(-c2cc(C(F)(F)F)n3nc(C(=O)N4CCOCC4)nc3n2)cc1,-3.9%,-1%,10%,-9%,6%,4%,-4%,2%
Cc1ccc(NC(=O)c2sc3nc(-c4ccncc4)ccc3c2N)cc1,-9.8%,·,16%[46.1 µM],-9%,·,·,21%,6%[46.1 µM]

High-throughput results as filed in PubChem BioAssay.
